Bfl-1 A1 inh: inhibitors of the anti-apoptotic protein A1, read as caspase activation. MEF A1-2A-BIM cells, Caspase-Glo 3/7 luminescence, 3 h; percent of clofoctol response, vehicle zero. caspase activation, % (concentration not given with the values). AID 2462. actives 0.066% (n = 330,000);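 active = over half of replicate activation scores above 10%, or exactly half above 10 with the replicate mean above 10; inconclusive = replicate mean below 10 yet half the replicates above 10; inactive = over half of replicates below 10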;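 note: wells of about 30 µL received 50 nL stock; many hits fall short of the cut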
T cruzi inh: T. cruzi replication inhibition. actives 1.4% (n = 300,000). T. cruzi beta-gal in NIH3T3, luminescence, 90 h. inhibition, % (concentration not given with the values). AID 1885;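 active = mean inhibition across valid replicates above about 55%, limit read from the data; inconclusive = mean below that limit but half or more replicates reach it; inactive = mean below it, under half of replicates reach it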;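 note: signal also drops with host cell toxicity which is not excluded here; 0% = plate median of DMSO wells and 100% = zero luminescence signal; higher percent means less beta-gal luminescence so fewer parasites; stock transfer was 50 nL into about 50 µL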
B2AR ag: human beta-2 adrenergic receptor agonism by FAP | P07550 | Am2.2-beta2AR cells, FAP receptor internalization, flow cytometry; reference of the scale not given here | response, % (no concentration beside the values) | actives 0.43% (n = 340,000);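 active = response above a set limit, near 3 SD of response in nonfluorescent compounds, cut at about 42% in these data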;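 note: stock transfer was 100 nL into about 11 µL; a reference agonist was the positive control; negative values mostly stem from fluorescent compounds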
Target sequence (P07550 whole entry, looked up): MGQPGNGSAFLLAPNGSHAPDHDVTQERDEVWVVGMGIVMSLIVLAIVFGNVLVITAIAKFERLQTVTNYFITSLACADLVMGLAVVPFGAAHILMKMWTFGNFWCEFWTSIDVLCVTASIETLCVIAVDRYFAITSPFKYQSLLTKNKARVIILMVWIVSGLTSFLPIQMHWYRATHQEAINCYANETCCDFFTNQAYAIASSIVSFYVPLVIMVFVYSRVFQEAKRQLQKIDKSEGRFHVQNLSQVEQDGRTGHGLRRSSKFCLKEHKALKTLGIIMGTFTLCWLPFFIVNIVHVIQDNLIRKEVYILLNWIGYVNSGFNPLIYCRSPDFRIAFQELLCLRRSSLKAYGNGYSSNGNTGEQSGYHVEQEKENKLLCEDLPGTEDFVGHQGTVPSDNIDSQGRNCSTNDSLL
Beta cell apopt: beta cell apoptosis inhibition | AID 435005 | INS-1E cytokine-induced death, ATP luminescence, 48 h; percent of positive-control rescue, neutral wells zero | actives 0.8% (n = 300,000) | protection from apoptosis, % (no concentration beside the values);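 active = all replicates at 75% or more, or half of them and the mean; inconclusive = half reach 75% but not the mean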;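 note: 0% = cytokine-treated negative control wells and 100% = positive control rescue; higher means more ATP so stronger rescue from cytokine killing; wells of about 40 µL received 100 nL stock; the first replicate is given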
Calb FLC: affects C. albicans growth with fluconazole | AID 1979 | actives 0.57% (n = 300,000) | C. albicans CaCi-2 (fluconazole-resistant clinical isolate) + fluconazole, Alamar Blue growth, 48 h | growth inhibition, % (test concentration not listed);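 active = most replicates above 75%; inconclusive = exactly half above 75%; inactive = most below 75%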;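 note: all wells also contain fluconazole at 8 µg/ml as a sub-toxic cotreatment; 0% = median of DMSO wells and 100% = median of geldanamycin control wells; wells of about 8 µL received 7.5 nL stock; the first replicate is given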
UCH37 DUB inh: blocks the human deubiquitinase UCH37 | inhibition, % (test concentration not listed) | actives 0.33% (n = 330,000) | AID 588478 | purified proteasome/UCH37, Ub-AMC cleavage fluorescence;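 active = mean of two replicates above 20%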;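 note: 0% = compound-free wells with enzyme and 100% = wells lacking proteasome; stock transfer was 100 nL into about 20 µL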
Target sequence (Q9Y5K5 whole entry, looked up): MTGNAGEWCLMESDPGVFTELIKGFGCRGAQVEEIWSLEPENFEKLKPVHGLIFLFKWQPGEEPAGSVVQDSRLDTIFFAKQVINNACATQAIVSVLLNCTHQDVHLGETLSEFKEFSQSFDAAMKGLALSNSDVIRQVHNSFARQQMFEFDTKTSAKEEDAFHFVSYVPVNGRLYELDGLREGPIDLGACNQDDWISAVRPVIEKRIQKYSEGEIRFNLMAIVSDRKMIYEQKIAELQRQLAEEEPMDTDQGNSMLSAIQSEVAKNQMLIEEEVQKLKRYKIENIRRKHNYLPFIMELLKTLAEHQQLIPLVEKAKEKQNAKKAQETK
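Reagent: Ub-AMC substrate; assay system: Proteasome-associated human UCH37 deubiquitinase; controls: no-proteasome and no-compound wells; read-out: % inhibition of Ub-AMC cleavage fluorescence; timing: 30 min preincubation with enzyme, 25 min cleavage at room temperature; signal: AMC fluorescence from Ub-AMC cleavage, excitation 355 nm, emission 460 nm; buffer or medium: Tris-HCl pH 7.4 plus ovalbumin, ATP-MgCl2, DTT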
RanGTP-Impb inh: disruptors of Ran-importin-beta complex formation – biochemical, FRET, CFP-Ran, YFP-importin-beta, homogeneous, primary screen; cell-free CFP-Ran/YFP-importin-beta FRET ratio; inhibition, % (no concentration beside the values); actives 1.1% (n = 300,000);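 active = most replicates above 15%; inconclusive = exactly half above 15%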;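 note: 0% = DMSO wells and 100% = Ran loaded with GDP instead of GTP; wells of about 40 µL received 100 nL stock; the first replicate is given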
LANA-H2B inh: blocks KSHV LANA binding to histone H2A/H2B | cell-free LANA-H2A/H2B peptide, fluorescence polarization | Q9QR71 | inhibition, % (no concentration beside the values) | actives 0.6% (n = 320,000); in the data active = inhibition mostly above about 10%, no sharp cut-off; inactive = mostly below about 6.7%;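 note: stock transfer was 7.5 nL into about 10 µL; 0% = median of vehicle wells and 100% = median of positive control wells; one replicate is shown; the record names a cut of 25% in any replicate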
An asterisk follows results filed as active; i = inactive; ? = inconclusive; . = no result given.

Order of values: Bfl-1 A1 inh	T cruzi inh	B2AR ag	Beta cell apopt	Calb FLC	UCH37 DUB inh	RanGTP-Impb inh	LANA-H2B inh
> O=C1[C@H]2CC3CCC2(O3)[C@@H]2OCCCN12 (some centres not stated)
    -0.2	-13	3	-6	0	2.5	?	0.2
> Nn1c(COc2ccccc2)nnc1SCc1cc(=O)[nH]c2ccccc12
    0.1	37	-4	-3	-8	5.8	?	0.1
> CN1CCN(c2nc3c(c(=O)n(C)c(=O)n3C)n2CC(=O)C23CC4CC(CC(C4)C2)C3)CC1
    -0.1	-5	-2	2	12	1.7	-6.7	-1.8
> NC1=NC(=O)/C(=C\c2ccco2)S1
    0.5	-6	-1	2	2	9.1	-0.7	2.2
> O=C(OCC(=O)N1CCCCCC1)c1ccc[nH]c1=O
    -0.7	.	6	1	.	4.5	.	-3.8
> COc1ccc(C(CNC(=O)c2oc3cc(Br)ccc3c2C)N2CCCCC2)cc1 (configuration not stated)
    0.4	5	-4	3	-18	0.3	-2.7	-5.3
> O=C(N/N=C/c1ccc(O)c(O)c1)c1cccc(S(=O)(=O)N2CCCCC2)c1
    0.8	-17	5	-1	-2	.	-0.6	4.7
> CCCC(c1nnnn1Cc1cccs1)N1CCN(c2nc3ccccc3s2)CC1 (configuration not stated)
    -1.4	23	-2	26	-7	0.4	-0.1	-1.9
> CCn1cc([C@@H]2C[C@H]3CN(Cc4cccc(Cl)c4)C(=O)[C@]34CCCN24)c(C)n1
    -0.3	-11	-2	-1	1	-1.7	-9.2	-2.0
> COc1ccc(C)cc1NC(=O)C1CCCN(S(=O)(=O)c2cccc3nonc23)C1 (configuration not stated)
    0.5	8	20	3	?	-0.4	-5.0	.
> O=C(/C=C/c1ccccc1Cl)NCCN1CCOCC1
    -0.4	10	-3	9	?	5.1	-1.1	-0.1
> CCn1c(CSc2nc3ccccc3s2)nnc1SCC(=O)c1ccc(Cl)cc1
    0.0	32	-9	-9	11	1.4	0.3	-1.5
> O=C(CC1C(=O)NCCN1Cc1cccc(C(F)(F)F)c1)NC1CCCCCC1 (configuration not stated)
    0.5	13	8	1	-9	-2.2	-5.2	2.1
> COc1ccc(CNC(=O)CCSCc2cccc(F)c2)cc1
    0.7	-21	2	-4	-5	1.1	3.6	0.3
> CCNC(=S)Nc1cccc(F)c1C
    -0.2	-15	4	-12	-7	1.4	-0.9	2.7
> CCC1(C(=O)OC)NC(c2ccco2)C2C(=O)N(c3ccccc3)C(=O)C21 (configuration not stated)
    -1.1	-15	12	0	1	0.6	4.5	3.7
> COc1cc(-c2csc(C)n2)ccc1O
    0.7	8	-1	1	-2	4.6	-0.2	1.7
> CCOc1ccc(C(=O)COC(=O)CN2C(=O)NC3(CCCCC3C)C2=O)cc1 (configuration not stated)
    -0.4	.	-5	-5	.	1.3	.	i
> CC1=[N+]([O-])C(C)(C)C(C)N(O)C1=O (configuration not stated)
    -1.4	-4	0	-4	-3	0.5	?	-1.9
> CC1(C)CC2CC(C)(CN2C(=O)c2cc(-c3ccc(O)cc3)on2)C1 (configuration not stated)
    -0.6	17	25	5	10	2.4	3.6	-2.2
> CCCC(=O)Nc1nnc(S(=O)(=O)N(CC)c2ccc(OC)cc2)s1
    0.9	-5	-3	-1	7	4.4	0.2	1.3
> CCOc1ccc(CSCCNC(=S)Nc2ccc(OC)cc2)cc1
    0.1	-5	-2	-2	7	1.8	0.1	0.5
> CCCOc1ccc(N2C(=O)CC(N(CCc3ccc(OC)cc3)C(=O)/C=C/C(=O)O)C2=O)cc1 (configuration not stated)
    0.1	-8	0	-4	-14	3.6	0.2	-14
> Cc1cccc(C2c3[nH]c4ccccc4c3CCN2C(=O)c2cc(-c3cccn3C)n[nH]2)n1 (configuration not stated)
    0.3	22	3	3	80*	2.6	21*	1.4
> CCN(CC)S(=O)(=O)c1cc(C(=O)O)ccc1Cl
    -0.4	-15	-4	-1	-13	2.2	-2.9	2.3
> COc1ccc(C(=O)NNC(=O)C(=O)Nc2ccc(C)cc2)cc1
    -0.4	-12	12	0	21	-0.2	1.8	2.3
> CCCNc1nc(Cl)nc(Nc2ccc(Cl)cc2)n1
    -1.4	52	8	36	?	-1.6	?	-6.5
> Oc1ccc(-n2cnnn2)cc1
    0.0	-12	6	-4	-6	5.5	-2.8	4.6
> Fc1ccc(CN2C3=NCCCN3c3ccccc32)cc1
    0.3	-2	-5	0	5	.	3.3	59*
> Cc1cc(-n2cccn2)ccc1CN1CCN(C2CCCC2)C(CCO)C1 (configuration not stated)
    2.3	30	-6	-6	-13	0.5	3.5	-3.0
> COc1cc(/C=N/NC(=O)c2ccncc2)ccc1OC(=O)c1ccccc1Cl
    2.0	-1	6	-2	17	.	-4.9	-4.7
> CC1CCCN(C(=O)COC(=O)COc2ccc(Cl)cc2)C1 (configuration not stated)
    0.5	.	-2	-5	.	0.2	.	-0.7
> FC(F)(F)c1ccc(Oc2ccc3c(C(F)(F)F)cc(C(F)(F)F)nc3n2)cc1
    -0.1	10	-13	8	1	2.1	1.7	0.6
> COc1ccc(C)cc1NS(=O)(=O)c1ccc2c(c1)N(C)CCO2
    1.2	-6	-1	3	-41	-0.1	-1.0	1.8
> O=[N+]([O-])c1ccc(N2CCN(S(=O)(=O)c3ccccc3)CC2)cc1NCc1ccco1
    -0.4	43	.	5	-5	2.9	-2.8	4.3
> Cc1ccc(Cn2nnnc2CN2CCC(O)(c3ccc(F)cc3)CC2)cc1
    -0.5	6	8	.	6	3.1	?	2.1
> O=C(COC(=O)c1cccs1)NCCC1=CCCCC1
    0.0	-19	0	-4	16	1.9	?	0.1
> Cc1ccc(OCCc2csc(N)n2)cc1
    0.7	.	0	-7	-36	-2.0	.	3.3
> CN(C(=O)COc1ncnc2sccc12)c1ccccc1
    0.0	.	-1	-7	2	2.9	.	3.2
> CCOc1ccc(OCCC(=O)N(CC)CC(=O)NCc2ccc(Cl)cc2)cc1
    -0.3	1	-2	3	8	-0.2	-4.8	0.1
> N#CC1=C(N)OC2=C(C(=O)CCC2)C1c1cc2c(cc1Cl)OCO2 (configuration not stated)
    0.3	0	4	-8	-1	0.9	1.3	-4.9
> COc1ccc(NC(=O)c2ccc3c(=O)n(-c4ccc(OC)cc4OC)c(=S)[nH]c3c2)c(OC)c1
    1.5	9	4	5	18	2.8	1.2	-2.0
> Oc1ccc(-c2n[nH]c(=S)n2-c2ccc3c(c2)OCCO3)c(O)c1
    1.7	-5	7	-1	-4	3.6	2.3	0.3
> COc1cc(Cl)c(C)cc1NC(=O)Cn1c(NCCO)nc2ccccc21
    0.2	-3	-5	-2	-9	2.2	5.1	-8.4
> Cc1cccc(OCc2ccc(C(=O)Nc3ccc(F)cc3)cc2)c1
    -0.8	-11	-2	1	9	6.7	7.7	0.6
> CC(=O)Nc1ccc(S(=O)(=O)N2CCC(NC(C)=O)(c3cccc(F)c3)CC2)cc1
    0.7	-2	-4	-8	4	4.2	3.3	1.9
> CC(Oc1ccc(Cl)cc1)C(=O)Nc1ncccn1 (configuration not stated)
    -0.2	-19	1	-5	-12	1.0	1.3	3.1
> NC(=O)C1(N2CCCCC2)CCN(S(=O)(=O)c2ccc(Cl)s2)CC1
    0.1	-9	1	5	-3	3.6	16	3.0
> CCN(CC)C(=O)C(=O)c1cn(CC(=O)N2CCc3ccccc3C2)c2ccccc12
    0.3	20	-3	-2	?	4.4	0.2	2.4
> CCOc1ccc(NS(=O)(=O)c2ccc(C(=O)NCC(c3ccccc3OC)N3CCCC3)cc2)cc1 (configuration not stated)
    0.8	3	10	-6	2	-1.9	-3.4	-3.5

Further records follow:
Order of values: Bfl-1 A1 inh	T cruzi inh	B2AR ag	Beta cell apopt	Calb FLC	UCH37 DUB inh	RanGTP-Impb inh	LANA-H2B inh
> CCOc1ccc(N2CC(=O)N(c3ccc(OCC)cc3)CC2=O)cc1
    -1.4	-1	4	-1	6	3.3	1.9	-5.5
> CC1Cc2cc(S(=O)(=O)N3CCN(C)CC3)ccc2N1C(=O)C1CC1 (configuration not stated)
    -0.4	-14	-2	-7	25	5.0	2.8	4.6
> COc1ccc(CCNC(=O)CN2C(=O)CSc3ccc(S(=O)(=O)N4CCOCC4)cc32)cc1OC
    -0.9	1	0	3	6	3.4	1.7	2.1
> O=C(COC(=O)CNC(=O)c1ccc(Cl)cc1Cl)NC1CC1
    0.1	.	-2	-3	.	1.8	.	4.2
> CCOC(=O)c1ccc(NC(=O)COC(=O)Cc2csc(-c3ccccc3)n2)cc1
    -1.7	-15	1	-10	5	0.6	7.5	-0.1
> Cc1ccccc1C(=O)N(CC(=O)Nc1sc(C)c(C)c1C(N)=O)C1CCCC1
    0.2	3	-4	0	16	0.5	-1.2	2.4
> Cc1cc(O)c(/C=N/Nc2ccccc2)c(=O)o1
    -0.7	12	1	-7	-4	.	7.7	-2.7
> FC(F)(F)c1nnc2ccc(N3CCOCC3)nn12
    -0.2	-4	0	-4	3	1.6	0.9	0.4
> CSc1ccc(Cl)c(C(=O)NCCOc2ccccc2)c1
    0.3	-4	-10	2	-4	4.1	1.1	-20
> CC(C)CN1C=C2C(=O)C(C)(OC(=O)CCc3ccccc3)C(=O)C=C2C=C1c1ccc(C#N)cc1 (configuration not stated)
    0.1	11	4	7	29	-1.5	?	0.5
> Cc1cc(C(=O)N/N=C/c2ccc([N+](=O)[O-])o2)c(C)o1
    -0.2	49	-2	-7	11	.	-2.7	-3.2
> Cc1ccc2oc(Nc3nc(C)c(C)c(C)n3)nc2c1
    -1.8	-13	-8	4	0	4.7	1.0	-4.4
> COc1cc(NC(=O)CN2CC(c3ccccc3)CC2=O)cc(OC)c1 (configuration not stated)
    0.0	-12	2	-2	-8	-0.1	-1.1	2.1
> CCN(CC)C(CNC(=O)CSc1nnnn1-c1ccc(C)c(C)c1)c1ccco1 (configuration not stated)
    -0.1	.	-3	4	.	1.4	.	-6.2
> COc1ccc(CNC(=O)COC(=O)c2cc3ccccc3cc2O)cc1OC
    -0.7	.	6	6	.	-1.0	.	3.9
> CCOc1ccc(CCNC(=O)c2ccc3nc(CC)c(CC)nc3c2)cc1
    -0.3	11	11	5	23	1.5	0.1	-0.6
> CCOC(=O)CON1C(=O)C(=O)N(OCC(=O)OCC)[C@H]2CCCC[C@H]21
    0.5	.	1	-10	0	6.5	1.5	-4.9
> Cc1cc(=O)[nH]c(=O)n1Cc1ccccc1
    -1.2	5	6	3	3	1.6	7.6	3.8
> CCOc1cc(CN2CCC(n3nccc3NC(=O)C3CC3)CC2)ccc1O
    -0.4	-6	-1	-3	2	1.8	0.8	-2.2
> CCn1c2ccccc2c2cc(NC(=O)COC(=O)c3cc(Cl)c(N)cc3OC)ccc21
    0.5	40	15	0	15	-11	2.2	3.8
